Resorufin fluor – qHTS Assay for Spectroscopic Profiling in Resorufin Spectral Region; Compound fluorescence, resorufin region 547/598 nm, buffer; hits give high values; max dye-equivalent concentration, M; actives 0.04% (n = 59,000); AID 588, 2007; active = above 10 nM dye equivalent; inconclusive = 1 to 10 nM; inactive = 1 nM or less; a few of its hits are not listed in these tables; also: highest value over a series up to 38 µM
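Compounds in 100 mM Tris buffer, pH 8.0, incubated 15 min at room temperature, then read with 547 nm excitation and 598 nm emission filters. Fluorescence was converted to dye-equivalent concentration using an on-plate six-point resorufin standard curve.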
AID923 – qHTS Assay for Allosteric/Competitive Inhibitors of Caspase-1: Spectroscopic Profiling in AFC Spectral Region. compound fluorescence, AFC spectral region (405/520 nm); almost no hit is shown here. Potency, µM (top dose mostly 57.5 µM), without a hit: at the top dose fluorescence increase, most hits filed as activators. actives 1.1% (n = 75,000); active = well fitted activation curve with a large enough effect; inconclusive = small, poorly fitted or top-dose-only effect;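 also: potency is read from the fitted curve at half-maximal effect; 0% is about no effect; scaled to a free AFC standard on each plate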
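Baseline compound fluorescence (AFC region, 405 nm ex/520 nm em) taken from the intercept of kinetic reads with 50 nM caspase-1 and 5 uM Ac-WEHD-AFC; normalized to an on-plate AFC standard curve; compounds titrated up to 57 uM.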
TSHR agonist – qHTS Assay for Agonists of the Thyroid Stimulating Hormone Receptor; Thyrotropin receptor (Homo sapiens), P16473; actives 0.48% (n = 73,000); AID 926, 2007; Potency, µM (doses to about 57.1 µM), inactives show at the highest dose activation, most hits filed as activators; HEK293-CNG-TSHR cells (CNG channel as cAMP sensor), membrane potential dye, cAMP; active = well fitted activation curve of enough size with the parental cells flat; inconclusive = any curve in the parental cells; inactive = parental cells flat and receptor cells flat or falling; also: potency is read from the fitted curve at half-maximal effect; % of control where 0% means no effect; weak receptor curves with flat parental cells got no call and are not listed
Target sequence (P16473 whole entry, looked up): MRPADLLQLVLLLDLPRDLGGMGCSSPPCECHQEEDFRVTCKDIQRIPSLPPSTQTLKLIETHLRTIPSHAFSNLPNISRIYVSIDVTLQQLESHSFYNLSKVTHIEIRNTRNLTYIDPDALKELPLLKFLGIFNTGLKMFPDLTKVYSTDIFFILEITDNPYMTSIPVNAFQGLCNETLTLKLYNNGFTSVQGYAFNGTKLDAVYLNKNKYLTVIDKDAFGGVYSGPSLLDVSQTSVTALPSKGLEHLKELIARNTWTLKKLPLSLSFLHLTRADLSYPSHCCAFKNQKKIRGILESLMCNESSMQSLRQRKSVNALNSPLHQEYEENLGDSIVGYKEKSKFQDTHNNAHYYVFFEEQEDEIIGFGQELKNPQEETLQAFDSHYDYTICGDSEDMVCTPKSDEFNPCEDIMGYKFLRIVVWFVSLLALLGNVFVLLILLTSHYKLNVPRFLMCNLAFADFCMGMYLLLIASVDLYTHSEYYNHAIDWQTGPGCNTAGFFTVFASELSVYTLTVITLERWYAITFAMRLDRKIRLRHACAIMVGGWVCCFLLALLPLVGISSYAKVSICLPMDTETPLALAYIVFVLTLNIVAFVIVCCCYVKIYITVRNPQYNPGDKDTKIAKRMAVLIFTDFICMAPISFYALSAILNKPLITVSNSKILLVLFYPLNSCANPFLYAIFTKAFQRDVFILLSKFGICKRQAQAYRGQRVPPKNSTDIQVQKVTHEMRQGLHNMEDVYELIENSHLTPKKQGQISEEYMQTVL
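HEK 293 cells stably expressing TSHR and a modified CNG channel, with CNG-only parental cells as counterscreen, were preloaded 60 min at room temperature with membrane potential dye containing 100 uM RO 20-1724. Compound exposure was 30 min, and depolarization was read as fluorescence at 590 nm.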
A647 fluor – qHTS Assay for Spectroscopic Profiling in A647 Spectral Region. max dye-equivalent concentration, M. 59,000 tested, under 10 active. AID 592, 2007. Compound fluorescence, A647 channel (570/671 nm), Tris buffer; active means above 1 µM dye equivalent; inconclusive means 0.1 to 1 µM; inactive means 0.1 µM or less;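 also: values scaled relative to a standard on each plate; highest value over a series up to 38 µM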
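Buffer was dispensed, compounds and Alexa 647 standards were pin-transferred, and plates sat 15 min at room temperature. Intensity at 570/671 nm was then converted to dye-equivalent concentration using the plate's A647 standard curve.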
A488 autofl – qHTS Assay for Spectroscopic Profiling in A488 Spectral Region; actives 0.1% (n = 59,000); AID 591, 2007; compound autofluorescence, A488 spectral region, dye equivalency; hits give high values; max dye equivalency, M; active = above 10 nM dye equivalent; inconclusive = 1 to 10 nM; inactive = 1 nM or less; about half of its hits are not listed in these tables;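 also: highest value over a series up to 38 µM; compound alone in buffer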
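Readout is A488 dye-equivalent concentration, calibrated by a per-plate six-point Alexa 488 series. Compounds in 100 mM Tris buffer pH 8.0 were incubated 15 min at room temperature. Plates were imaged using 480 nm excitation/540 nm emission filters.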
Active calls of the source: *; i = inactive; ? = inconclusive; nt = not tested or not shown; [ ] = dose if it differs, or a comment. This is a subset; the hit share may differ from the screen's.

SMILES	Resorufin fluor	AID923	TSHR agonist	A647 fluor	A488 autofl
O=S(=O)(c1ccccc1Cl)N1CCCC(c2nc(-c3cccnc3)no2)C1 (stereo not drawn)	i	0.8%	15%	1e-09	i
Fc1cccc(F)c1CN1CCN(c2ncccn2)CC1	i	-1.6%	-2%	3.5e-09	i
CS(=O)(=O)N(CC(=O)N1CCN(c2ccccc2)CC1)c1cccc(Br)c1	nt	1.3%	12%	nt	nt
CC(NC(=O)C(CC(=O)OC(C)(C)C)NC(=O)OC(C)(C)C)C(N)=O (stereo not drawn)	i	1.8%	-4%	1e-09	i
CSCCC1(C(=O)O)NC(c2ccccc2O)C2C(=O)N(C(C)C)C(=O)C21 (stereo not drawn)	nt	0.2%	-3%	nt	nt
O=C(Nc1nc(-c2ccccc2)cs1)c1cccs1	nt	1.2%	?	nt	nt
CCOC(=O)c1c(NC(=O)c2ccn(CC)n2)sc2c1CCCC2	i	1.7%	4%	1e-09	i
COc1ccc(S(=O)(=O)n2nc(OC(=O)c3ccccc3)cc2N)cc1	i	-0.9%	5%	1e-09	i
COc1cc(OC)cc(C(=O)N2CCN=C2SCc2cccnc2)c1	nt	-2.6%	?	nt	nt
Cc1oc(CSCC2CCCO2)cc1C(=O)O (stereo not drawn)	i	0.3%	5%	6.9e-09	i
COc1ccc(-c2nn(C)c(=O)c3ccccc23)cc1NS(C)(=O)=O	i	nt	nt	2.9e-08	i
CC(=O)Nc1ccc(NC(=O)c2cccc(C(=O)OC(C)C)n2)cc1	i	1.5%	17%	1e-09	i
CN(Cc1ccc(O)cc1)C1CCCCC1	nt	4.4%	2%[11.4 µM]	nt	nt
Cc1ccc(OCc2nnc(SCC(=O)NCc3ccccc3)n2C)cc1	i	-0.9%	?	2.5e-09	i
O=C(c1ccco1)N1CCC2(CC1)CN(c1ncccn1)C2	i	-0.7%	?	1e-09	i
Cc1cc(=O)n2nc(N3CCCC(C(=O)N4CCc5ccccc54)C3)sc2n1 (stereo not drawn)	i	0.7%	9%	1.9e-08	i
CCOCCCn1cnc2c([nH]c3cc(OC)ccc32)c1=O	nt	2.0%	-2%	nt	nt
Cc1ccc2c(c1[N+](=O)[O-])C(=O)c1ccccc1C2=O	nt	-1.5%	?	nt	nt
Cc1cccc(NC(=O)c2cc3n(n2)C(C(F)(F)F)CC(c2ccc4c(c2)OCO4)N3)c1 (stereo not drawn)	i	1.5%	-13%	2.5e-08	i
COc1ccc(/C(O)=C2\C(=O)C(=O)N(CCCN(C)C)C2c2ccccc2F)cc1Cl (stereo not drawn)	i	-0.1%	4%	9.6e-09	i
Nc1nnc(N2CCCCCC2)s1	i	-0.5%	-8%	1.9e-08	i
Cc1cc2nnc(SCC(=O)NCc3ccco3)n2c2ccccc12	i	0.4%	9%	8.7e-09	i
COCCn1c(C)cc(C(=O)CSc2nc3ccccc3c(=O)[nH]2)c1C	i	1.2%	15%[11.4 µM]	4e-08	i
COc1cc2cc(C(c3nnnn3C3CCCC3)N3CCCCCC3)c(=O)[nH]c2cc1OC (stereo not drawn)	i	4.9%	19%	5.6e-08	i
COC(=O)C/C=C\[C@@H](C)[C@@H](/C=N\O[C@@H](C)c1cn([C@H]2COC[C@H]2O)nn1)NS(=O)(=O)c1ccc(C)cc1	nt	-1.0%[11.5 µM]	-2%[11.4 µM]	nt	nt
COC(=O)c1nc2n(n1)C(c1ccccc1OC)C1=C(CCCC1=O)N2 (stereo not drawn)	i	-0.7%	5%	8.2e-09	i
CCCOP(=O)(c1ccc(N(C)C)cc1)C(O)c1ccncc1 (stereo not drawn)	i	-0.5%	-2%	1.6e-09	i
CCOC(=O)CSc1nnc(NCC(=O)OC(C)C)c(=O)[nH]1	i	-0.3%	-23%	3.9e-09	i
Cc1onc(-c2c(Cl)cccc2Cl)c1C(=O)NCc1ccccn1	nt	-2.5%	-4%	nt	nt
CCS(=O)(=O)N1CCCC(C(=O)NCCCOC)C1 (stereo not drawn)	i	0.3%	4%	5.3e-09	i

Compound profiles, as listed above. Order of values: Resorufin fluor	AID923	TSHR agonist	A647 fluor	A488 autofl
CC(=O)Nc1ccc(NC(=O)c2cccc(C(=O)OC(C)C)n2)cc1 as listed: i	1.5%	17%	1e-09	i
CCOC(=O)c1c(NC(=O)c2ccn(CC)n2)sc2c1CCCC2 as listed: i	1.7%	4%	1e-09	i
COc1cc2cc(C(c3nnnn3C3CCCC3)N3CCCCCC3)c(=O)[nH]c2cc1OC (stereo not drawn) as listed: i	4.9%	19%	5.6e-08	i
Fc1cccc(F)c1CN1CCN(c2ncccn2)CC1 as listed: i	-1.6%	-2%	3.5e-09	i

The listing continues.
SMILES	Resorufin fluor	AID923	TSHR agonist	A647 fluor	A488 autofl
CCOc1cc(-c2c(C#N)c(=O)[nH]c3c2c(C)nn3-c2ccc(F)cc2)ccc1O	i	-4.2%	-13%	5.6e-09	i
COc1ccc(S(=O)(=O)N(CC(=O)Nc2ccc3c(c2)OCO3)c2ccccc2OC)cc1	nt	-1.2%	6.3µM*	nt	nt
Cc1nn(Cc2ccccc2)c2sc(C(=O)NCc3cccnc3)cc12	i	-2.0%	4%	1e-09	i
CCCOc1ccc(CSc2ncn[nH]2)cc1	i	-0.8%	-1%	2.4e-08	i
Cc1nnc(N2C(=O)C(O)=C(C(=O)c3ccco3)C2c2ccc(F)cc2)s1 (stereo not drawn)	nt	3.6%	?	nt	nt
CCCCC(CC)CO (stereo not drawn)	nt	-2.0%	-5%	nt	nt
CCOc1cc2[nH]c(=S)n(Cc3ccc(C)o3)c(=O)c2cc1OCC	i	1.3%	-7%	1e-09	i
CCn1nnnc1SCC(=O)NCc1ccco1	i	3.2%	-3%	5.8e-09	i
CNC(=O)NC(=O)CSc1ncc(C(F)(F)F)cc1Cl	i	-3.4%	-3%	4.3e-09	i
O=S(=O)(c1ccccc1)N1CCC[C@@]2(CCN(Cc3nccs3)C2)C1	i	0.0%	?	5e-09	i
Cn1c(CN2CCOCC2)nc2cc(NC(=O)c3ccccc3Cl)ccc21	i	-0.3%	12%	1.9e-08	i
COc1ccc(C/C(O)=C(\C#N)c2nc3ccccc3[nH]2)cc1OC	nt	-0.6%	-8%	nt	nt
Cc1cc(C(=O)CSc2nc3ccccc3o2)c(C)n1C1CC1	i	2.3%	?	1e-09	i
COc1ccc(/C=N/n2cncn2)cc1COc1ccc(NC(C)=O)cc1	i	nt	nt	3.4e-08	i
CCCn1nnnc1SCC(=O)N(C(C)C)C(C)C	i	-0.2%	7%	3.4e-08	i
O=C1c2ccccc2C(=O)N1Cc1nc2ccccc2c(=O)n1CCCn1ccnc1	nt	1.9%	-2%	nt	nt
CC(=O)NC(Cc1ccc(C(C)C)cc1)C(=O)NC1CCN(c2nc(C)cc(C)n2)CC1 (stereo not drawn)	i	1.0%	nt	6.2e-09	i
CSC1=Nc2sc3c(c2C2=NCCN12)CCCC3	i	-1.3%	?	1.9e-09	i
O=S(=O)(NCc1ccc(F)cc1)c1ccc2c(c1)OCCO2	i	-1.3%	-2%[11.4 µM]	4e-09	i
CCn1c(SCC(=O)N2CCN(c3ccccc3)CC2)nc2c(c1=O)SC(C)C2 (stereo not drawn)	nt	-4.2%	?	nt	nt
COc1ccc2[nH]cc(CCNC(=O)C3CCCNC3=O)c2c1 (stereo not drawn)	nt	-1.9%	-1%	nt	nt
CCn1c(=O)c2cc(S(=O)(=O)NCc3ccccc3)ccc2n(CC)c1=O	i	0.3%	nt	1.1e-08	i
CCOC(=O)c1cccc(NC(=O)CCNS(=O)(=O)c2ccc3c(c2)CCN3C(=O)CC)c1	i	2.1%	7%	1e-09	i
COc1cc2c(cc1OC)C1=C(C#N)CCC(=O)N1CC2	i	-1.0%	11%	2.9e-08	i
CS(=O)(=O)N1CCC(C(=O)c2cccc(Cl)c2)CC1	i	1.1%	-2%	1.6e-09	i
Cc1nc2cc(-c3ccccc3)ccc2o1	i	0.5%	-4%	7.3e-09	i
Nc1ncc2c(n1)CC(c1ccco1)CC2=O (stereo not drawn)	i	-2.9%	-5%	2.2e-09	i
C=CCn1cnc2c(NCc3ccccc3)ncnc21	i	0.2%	-7%	1e-09	i
Cc1ccc(C(c2nnnn2C(C)(C)C)N2CCN(C3CCCC3)CC2)cc1 (stereo not drawn)	i	1.4%	?	2.1e-08	i
CCOc1ccc(N2Cc3ccccc3C2)cc1	nt	0.0%	7%	nt	nt

Overlap with the part before: 3 entries, then new ones.
SMILES	Resorufin fluor	AID923	TSHR agonist	A647 fluor	A488 autofl
C=CCn1cnc2c(NCc3ccccc3)ncnc21	i	0.2%	-7%	1e-09	i
Cc1ccc(C(c2nnnn2C(C)(C)C)N2CCN(C3CCCC3)CC2)cc1 (stereo not drawn)	i	1.4%	?	2.1e-08	i
CCOc1ccc(N2Cc3ccccc3C2)cc1	nt	0.0%	7%	nt	nt
Cc1c(C)c2c(C)nn(-c3ccccc3)c2[nH]c1=O	nt	2.2%	11%[11.4 µM]	nt	nt
COC(=O)Cc1cc(=O)[nH]c(/N=C(\N)Nc2ccc(C)cc2C)n1	nt	-2.6%	20%	nt	nt
Cc1ccc(S(=O)(=O)C2(C(=O)Nc3ccc(F)cc3)CC2)cc1	i	-0.4%	-2%	1.9e-09	i
COc1ccc(OC)c(NC(=O)CCN2CCN(c3ccccc3F)CC2)c1	nt	-1.4%	14%[11.4 µM]	nt	nt
COc1ccc(CCNC(=O)CCSc2nc(-c3ccco3)cc(C(F)(F)F)n2)cc1	i	-2.3%	?	1e-09	i
COC(=O)c1cccc(Oc2nc(N3CCOCC3)nc(N3CCOCC3)n2)c1	i	1.2%	9%	1.1e-08	i
Cc1cnc(CNc2ccnc(-c3ccccc3Cl)n2)cn1	i	-2.1%	3%	1e-09	i
O=C(CCS(=O)(=O)c1cccc2nonc12)NCCc1ccccc1Cl	i	-1.1%	-8%	7.2e-09	i
CCCCCCC(=O)N(O)C1CC(=O)N(c2ccccc2)C1=O (stereo not drawn)	i	-0.3%	nt	2.9e-08	i
O=C(CSc1nnc(Cc2ccccc2)o1)NCc1ccco1	i	0.0%	5%	2.6e-09	i
Cc1cc(C)n(C(=O)CN2C(=O)COc3ccccc32)n1	i	0.5%	13%	1.1e-08	i
O=C(Nc1ccc(-c2cn3ccsc3n2)cc1)C1CCCC1	i	-0.6%	-3%	9e-09	i
O=C(NCCN1CCOCC1)C1CC(=O)N(c2ccc(F)c(Cl)c2)C1 (stereo not drawn)	i	-1.1%	4%	1e-09	i
N=c1nc(-c2ccccc2)ccn1O	i	1.3%	0%	3.4e-09	i
CN(C)/C=N/c1c(C#N)cnn1-c1ccc(C(F)(F)F)cn1	i	-0.2%	13%	3.4e-09	i
CC(C)NC(=O)NC1C2CC3CC(C2)CC1C3 (stereo not drawn)	i	0.9%	0%	2.4e-08	i
CCOC(=O)c1cc2c(c(CSc3nc4ccccc4c(=O)n3Cc3ccco3)c1)OCOC2	i	3.5%	32%	6.6e-09	i
CCc1ccc(S(=O)(=O)NCCc2csc(-c3ccccc3)n2)s1	i	-0.8%	nt	4.5e-09	i
CN(C)CCCN1C(=O)c2oc3ccc(Cl)cc3c(=O)c2C1c1cccnc1 (stereo not drawn)	nt	5.2%	2%	nt	nt
Cc1ccccc1-c1cc(-n2ccnc2)ncn1	i	-1.4%	8%	1e-09	i
O=c1cc(Nc2ccc3c(c2)OCCO3)[nH]c(=O)n1-c1ccc(Br)cc1	i	-0.6%	-5%	1e-09	i

Bioassay records deposited in PubChem BioAssay by National Center for Advancing Translational Sciences (NCATS).
